# Measles inh: inhibitors of measles virus growth in infected cells; 33,000 compounds, 0.1% hits; infected Vero cells, GFP fluorescence, 64 h; hits give low values; z-score (test concentration not listed); AID 745;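 active = z-score under -3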;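 also: score is relative to mean and SD of the compound wells of a plate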
# * = called active by the depositor. The list is partial. The share of hits here may be higher or lower than overall.
SMILES,Measles inh
CC(=O)Oc1ccc(C(=O)Nc2ccc(Cl)cc2C(=O)c2ccccc2)cc1,-0.92
CC1=C(C(=O)OC(C)(C)C)C2(C(=O)Nc3ccccc32)C(C(=O)OC(C)(C)C)=C(N)O1 (centres undefined),-0.43
COc1cccc(C=Cc2nc3ccccc3c(=O)n2-c2ccc(F)cc2)c1OC,-0.51
O=[N+]([O-])c1ccc(Cl)c2nonc12,1.3
O=c1oc2ccccc2c(O)c1C(C[N+](=O)[O-])c1c[nH]c2ccccc12 (centres undefined),0.52
O=c1c2ccccc2nc(C=Cc2ccccc2)n1-c1cccc(Cl)c1,-0.89
CCOc1ccc(C(Nc2ccc(Br)cc2)P2(=O)Oc3ccccc3O2)cc1 (centres undefined),-0.69
CNc1ccc(C)cc1C(=O)c1ccc(Br)cc1,-0.88
Cc1ccc(CC2CC(=O)N(c3ccc4c(C(F)(F)F)cc(=O)oc4c3)C2=O)cc1 (centres undefined),-1.26
COc1ccccc1C=Cc1nc2ccccc2c(=O)n1-c1ccc(C)cc1,-0.07
O=C1NC(=O)C2(C(=O)N1)C(c1ccc(F)cc1)NC(=O)NC2c1ccc(F)cc1 (centres undefined),0.33
Cc1ccc(NC(=O)CCC(=O)Nc2ccc(Cl)cc2C(=O)c2ccccc2)cc1,-0.61
COc1cc(OC)cc(C(=O)Nc2ccc(Cl)cc2C(=O)c2ccccc2)c1,-0.12
OC12CCCCC1CNCC2 (centres undefined),0.3
CCOC(=O)c1c(NC(=O)C(c2ccccc2)c2ccccc2)sc2c1C1CCN2CC1,-0.06
C(=NC12CN3CN(CN(C3)C1)C2)c1cccnc1,-0.01
CCc1ccc(CN2CCN(Cc3ccc(OC)cc3)CC2)cc1,-0.1
Cc1ccc(NC(=O)CN2C(=O)C(C)N=C(c3ccccc3)c3ccccc32)c(Cl)c1 (centres undefined),0.9
CC1CC(NC(=O)C2C3CCC(O3)C2C(=O)O)CC(C)(C)C1 (centres undefined),-0.43
CC(C)c1ccccc1OCC(=O)Nc1ccc(Cl)cc1C(=O)c1ccccc1,-0.36
O=c1cccc2n1CC1CC2CN(c2nc3ccccc3nc2C(F)(F)F)C1 (centres undefined),2.24
CCCCN1C(=N)C(CC)(CC)C(=O)NC1=O,-0.03
CCOC(=O)C1C2NC(=S)N(CCc3ccccc3)C1(C)Oc1c(OCC)cccc12 (centres undefined),-0.06
O=C1CC2OCC=C3CN4CCC56c7cc([N+](=O)[O-])ccc7N1C5C2C3CC46 (centres undefined),-0.87
COc1ccc(-n2c(C=Cc3ccccc3Cl)nc3ccccc3c2=O)cc1,-0.29
C=CCOC(=O)C1=C(C)OC(N)=C(C(=O)OCC)C12C(=O)N(CC=C)c1ccccc12 (centres undefined),0.31
O=C(CN1C(=O)CN=C(c2ccccc2Cl)c2cc(Cl)ccc21)Nc1ccccc1C(F)(F)F,0.27
CC1CCN(C(=O)c2ccc(N3CC4CC(C3)c3cccc(=O)n3C4)c([N+](=O)[O-])c2)CC1 (centres undefined),-0.7
CCc1ccc(N2C(=O)CC(=O)NC2=O)cc1,-0.51
O=C1CC(=O)N(c2cccc(Cl)c2)C(=O)N1,2.57
COc1ccccc1CN1CCN(C(=O)COc2cccc(C)c2)CC1,-0.62
C=CCOC(=O)C1C2NC(=S)N(c3cccc(Br)c3)C1(C)Oc1ccccc12 (centres undefined),-0.27
CC(C)(O)c1ccc(C(=O)C2CN3CCC2CC3)s1 (centres undefined),-0.23
CCOP(=O)(OCC)C(NC(=O)c1ccc(Cl)cc1)=C(Cl)Cl,-0.58
Clc1ccc(C2CC(c3cccnc3)Nc3ncnn32)cc1 (centres undefined),-0.32
COC(=O)c1ccc(C(c2c(O)c3ccccc3oc2=O)c2c(O)c3ccccc3oc2=O)cc1,-1.82

# Molecules from the list above containing a thiophene ring, fused or not, in the order listed:
SMILES,Measles inh
CCOC(=O)c1c(NC(=O)C(c2ccccc2)c2ccccc2)sc2c1C1CCN2CC1,-0.06
CC(C)(O)c1ccc(C(=O)C2CN3CCC2CC3)s1 (centres undefined),-0.23

# 3 compounds already listed, arranged by count of non-hydrogen atoms, low to high:
SMILES,Measles inh
O=C1CC(=O)N(c2cccc(Cl)c2)C(=O)N1,2.57
C=CCOC(=O)C1=C(C)OC(N)=C(C(=O)OCC)C12C(=O)N(CC=C)c1ccccc12 (centres undefined),0.31
COC(=O)c1ccc(C(c2c(O)c3ccccc3oc2=O)c2c(O)c3ccccc3oc2=O)cc1,-1.82

# Next results follow.
SMILES,Measles inh
O=c1c2ccccc2nc(Cc2ccccc2)n1-c1ccccc1,-0.4
CN1CCN(C(=O)Cc2c(C(=O)O)[nH]c3ccc(Cl)cc23)CC1,1.01
CN(C)c1ccc(C2SCC(=O)Nc3c2c(-c2ccccc2)nn3-c2ccccc2)cc1 (centres undefined),0.22
OC1(c2ccccc2)CN2CCC1CC2 (centres undefined),0.63
O=C(NCc1cccs1)c1ccc(N2CC3CC(C2)c2cccc(=O)n2C3)c([N+](=O)[O-])c1 (centres undefined),-0.29
O=C(c1ccccc1)c1cc(Br)ccc1NC(=O)c1cc2ccccc2oc1=O,-0.06
O=C(O)Cn1cnc([N+](=O)[O-])c1[N+](=O)[O-],1.92
CN1CCN(c2nnc(C(F)(F)F)s2)CC1,-0.71
COc1ccc(OC)c(NP(=O)(Oc2ccccc2)Oc2ccccc2)c1,-0.64
O=C(COc1ccc(Br)cc1)N1CCN(Cc2ccncc2)CC1,-1.72
CC(C)CNP(=S)(c1ccccc1)C(C)(C)C (centres undefined),1.92
Cc1cc(C)cc(-n2c(C=Cc3ccccc3F)nc3ccccc3c2=O)c1,-2.22
COc1ccc(NC(=O)C2c3cc(OC)c(OC)cc3C(=O)N3CCCCC23)cc1Cl (centres undefined),0.47
O=C1C2C3C=CC(O3)C2C(=O)N1c1ccc(Br)cc1 (centres undefined),-0.58
COc1ccc(CCNCc2ccc(C(F)(F)F)cc2)cc1OC,0.65
CCOc1ccc(-n2c(-c3ccccn3)nc3ccccc3c2=O)cc1,-0.5
Cn1nc(-c2ccccc2)nc2c(=O)n(C)c(=O)nc1-2,-0.71
C=CCOC(=O)C1=C(N)OC(C)=C(C(=O)OCCOC)C12C(=O)Nc1ccccc12 (centres undefined),-0.66
C=CCOC(=O)C1C2NC(=S)N(c3ccccc3)C1(C)Oc1c(OC)cccc12 (centres undefined),-0.23
CCN(CC)C(=O)c1ccc(NC(=O)Cn2nc(-c3ccc(Cl)cc3)c3ccccc3c2=O)cc1,0.78
CNc1ccc(C)cc1C(=O)c1cccc(Br)c1,-0.14
O=C1CCNC2CCCCC12 (centres undefined),-0.18
COc1ccc(-n2c(-c3ccccc3)nc3ccccc3c2=O)cc1,-0.74
O=C(c1ccccc1)c1cc(Br)ccc1NC(=O)c1c(O)c2ccccc2[nH]c1=O,-0.07
COc1ccc(CNCCc2cccc(F)c2)c(OC)c1C,-0.74
COc1ccc(-n2c(C=Cc3cccnc3)nc3ccccc3c2=O)cc1Cl,-1.75
COc1ccccc1CN1CCN(Cc2cc(Br)ccc2O)CC1,-0.39
COc1ccc(OC)c(C(c2c(O)c3ccccc3oc2=O)c2c(O)c3ccccc3oc2=O)c1,-0.06
CCN1CCN(C(=O)COc2ccc3c(c2)C(=O)CC2(CCN(C(C)=O)CC2)O3)CC1,0.6
Cc1cccc(CN2C(=O)C(C)N=C(c3ccccc3)c3ccccc32)c1 (centres undefined),-1.2
COc1ccc(Cl)cc1NC(=O)C1c2ccccc2C(=O)N2CCCCC12 (centres undefined),1.07
O=C1CC(=O)N(c2cccc(Br)c2)C(=S)N1,0.28
CCC(=CC=CC1C=CC2CCCC2C1C(=O)c1ccc[nH]1)C1OC(C(C)C(=O)O)CCC1C (centres undefined),-1.91
Clc1ccc(CN2CCN(Cc3ccc(Cl)cc3)CC2)cc1,-1.59
C=CCN1C(=O)C2(C(C(=O)OC)=C(N)OC(CC(=O)OC)=C2C(=O)OC)c2ccccc21 (centres undefined),0.56
CCOC(=O)C1C(=O)NC23CCCCC2C1c1ccccc1O3 (centres undefined),-0.06

# 2 entries from above, bar-delimited:
Structure | Measles inh
C=CCOC(=O)C1C2NC(=S)N(c3cccc(Br)c3)C1(C)Oc1ccccc12 (centres undefined) | -0.27
COc1ccc(OC)c(NP(=O)(Oc2ccccc2)Oc2ccccc2)c1 | -0.64

# An excerpt from further up, as a working copy:
SMILES,Measles inh
COc1ccc(CNCCc2cccc(F)c2)c(OC)c1C,-0.74
COc1ccc(-n2c(C=Cc3cccnc3)nc3ccccc3c2=O)cc1Cl,-1.75
COc1ccccc1CN1CCN(Cc2cc(Br)ccc2O)CC1,-0.39

# Later entries
SMILES,Measles inh
CC12CN3CC(C)(CN(C1)C31CCCC1)C2O (centres undefined),0.7
N#CSCC(=O)N1c2ccccc2CCc2ccccc21,0.04
COC(=O)C(O)(c1ccc(N(C)S(=O)(=O)c2ccccc2)cc1)C(F)(F)F (centres undefined),0.51
O=C(C1c2ccccc2C(=O)N2CCCCC12)N1CCCCCC1 (centres undefined),0.53
COc1ccc(Cl)cc1NC(=O)C1c2cc(OC)c(OC)cc2C(=O)N2CCCCC12 (centres undefined),-0.55
Brc1ccc(CN2CCNCC2)cc1,-0.06
c1cncc(CNCCc2c[nH]c3ccccc23)c1,-0.47
CN1CCN(c2ccc([N+](=O)[O-])s2)CC1,-2.51
O=C(Cc1ccc(-n2c(=S)[nH]c3ccccc3c2=O)cc1)N1CCN(Cc2ccccc2)CC1,1.54
Cc1ccccc1C1CNC(=O)C1 (centres undefined),0.63
COc1cccc(-n2c(C=Cc3ccc(Br)cc3)nc3ccccc3c2=O)c1,0.11
CN1CCCC(C(O)(c2ccccc2)c2ccccc2)C1 (centres undefined),-1.42
